miR-21 reporter: raises the signal of a miR-21 reporter; HeLa miR-21 FLuc reporter, luciferase, 48 h; Potency, µM (titrated, usually from 38.3 µM), for inactives: at the highest dose reporter change, positive = more light; 340,000 tested, under 10 active; active = well fitted rising curve with a large enough effect; inconclusive = small, poorly fitted or top-dose-only effect; inactive = no such curve, though single readings can be large or run the other way;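 also: % of control where 0% means no effect; miR-21 action dims this reporter so a rising signal means less miR-21 action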
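HeLa cells endogenously expressing miR-21, stably carrying CMV-driven firefly luciferase with a downstream miR-21 binding site, 2000 cells/well. Titrations up to approximately 40 uM, 48 hours; luciferase luminescence read.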
Rango-impB inh: inhibitors of Rango-importin beta complex formation | Q14974 | Rango CFP/YFP FRET sensor + importin beta, 45 min | Potency, µM (top dose mostly 92.2 µM), inactives show at the top dose inhibition of complex formation | 340,000 compounds, 0.031% hits; active = rising FRET ratio curve, often small or poorly fitted; inconclusive = mostly compound fluorescence or quenching in the first reads; inactive = flat curves in all reads;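 also: potency is read from the fitted curve at half-maximal effect; 0% = DMSO wells and 100% = buffer wells lacking importin beta; nearly all actives have a fitted effect of over 15% in size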
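FRET biosensor (snurportin 1 IBB flanked by EYFP and cerulean), 50 nM, with compound 5 min, then 0.125 microM importin beta in PBS, 1 mM DTT, 0.02% Tween-20, 0.1% BSA. CFP/YFP ratio read after 45 min at room temperature; pre-read flags interference.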
GLA inh pH 4.5: inhibitors of human alpha-galactosidase A at pH 4.5; P06280; 230,000 tested, under 10 active; activity change, negative = inhibition, % at 105 µM; purified enzyme, 4-MU-alpha-Gal fluorescence, pH 4.5; inconclusive = small, poorly fitted or top-dose-only inhibition, or a rising curve; inactive = flat fitted curve, though single readings scatter; no compound was filed as active;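 also: 0% = full activity with enzyme and -100% = basal without enzyme; dose as in the result columns while the protocol names 77 µM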
Target sequence (P06280 whole entry, looked up): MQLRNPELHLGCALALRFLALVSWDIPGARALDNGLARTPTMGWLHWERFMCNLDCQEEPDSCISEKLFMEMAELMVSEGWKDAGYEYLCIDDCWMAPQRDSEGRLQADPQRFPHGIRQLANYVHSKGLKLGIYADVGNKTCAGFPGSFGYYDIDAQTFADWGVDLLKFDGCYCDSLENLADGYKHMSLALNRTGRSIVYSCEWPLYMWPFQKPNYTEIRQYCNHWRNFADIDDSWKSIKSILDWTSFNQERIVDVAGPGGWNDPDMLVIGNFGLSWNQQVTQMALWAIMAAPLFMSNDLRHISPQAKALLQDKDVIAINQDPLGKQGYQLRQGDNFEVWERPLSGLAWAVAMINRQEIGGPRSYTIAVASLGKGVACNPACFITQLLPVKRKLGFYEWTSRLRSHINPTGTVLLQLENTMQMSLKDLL
Rango release inh: prevents RanGTP from dissociating the Rango-importin beta complex; Biochemical FRET Rango-importin beta, RanGTP-induced dissociation; Potency, µM (doses to about 46.1 µM), without a hit: at the highest dose activity change, negative = inhibition; 340,000 compounds, 0.071% hits; active means falling FRET ratio curve, often poorly fitted, with flat reads before Ran was added; inconclusive means other falling curves, or compound fluorescence or quenching; inactive means flat or rising ratio curve;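 also: potency is read from the fitted curve at half-maximal effect; % of control where 0% means no effect; nearly all actives have a fitted effect of over 45% in size; -100% = wells without RanGTP and RCC1; the record marks most hits as doubtful in a second field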
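Recombinant Rango FRET biosensor (EYFP–snurportin 1 IBB–cerulean CFP10) at 0.1 uM premixed with 0.25 uM importin beta in PBS, 1 mM DTT, 0.02% Tween-20, 0.1% BSA. Compound added 5 min; RanGTP-RCC1 (0.6 uM Ran, 2 mM GTP, 0.2 uM RCC1) then triggers release, read at 45 min.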
* hit, by the source's call; ? = inconclusive; nt = no result given; & = joins results of further samples. A portion of the library; count on the stated rates, not on these rows.

SMILES	miR-21 reporter	Rango-impB inh	GLA inh pH 4.5	Rango release inh
CCCCC1=CC2=CC(=O)C(C)(OC(=O)CC)C(=O)C2=CN1C(CO)CO (stereo not given)	3%	?	6&-24	-18%
CC(Sc1nnnn1C1CC1)C(=O)Nc1cccc(S(=O)(=O)N2CCOCC2)c1 (stereo not given)	nt	0.0%	nt	-2%
CN(C(=O)COC(=O)/C=C/c1ccc(S(=O)(=O)N2CCc3ccccc32)cc1)C1CCS(=O)(=O)C1 (stereo not given)	0%	0.4%	1	6%
Cc1ccc(Cl)cc1N1CCN(C(c2ccc(C#N)cc2)c2nnnn2C2CCCC2)CC1 (stereo not given)	-5%	2.5%	-1	-18%
Cc1ccc(CNC(=O)C2CC=CCC2C(=O)O)cc1 (stereo not given)	1%	-0.1%	nt	-1%
CCOc1cc2[nH]c(=S)n(Cc3ccc(C(=O)NCCOC)cc3)c(=O)c2cc1OCC	1%	-0.2%	5	-4%
C/C(=N\NC(=O)Cc1c(C)[nH][nH]c1=O)c1cccc(Br)c1	-1%	0.3%	3	13%
COc1ccc(/C=N/Nc2nncn2N)cc1Br	19%	2.3%	nt	-8%
COc1cc2c(C(=O)NCc3ccc4c(c3)OCO4)cn(C)c(=O)c2cc1OC	-1%	-2.3%	-6	3%
Nc1nc(NCCCN2CCOCC2)nc(Nc2ccc(Cl)cc2)c1[N+](=O)[O-]	-9%	0.7%	-8	-8%
COc1ccccc1NC(=O)CSc1ncnc2c1oc1ccccc12	-14%	-3.8%	0	13%
O=C(OCC(=O)N(C1CCCCC1)C1CCCCC1)c1cnccn1	0%	-3.0%	1	6%
COCCN(C(=S)Nc1ccc(C)cc1C)C(C)c1cccs1 (stereo not given)	-3%	0.2%	3	-2%
CC(C)(C)c1cc[n+](-c2nc([O-])sc2C=O)cc1	-1%	-1.1%	-8	9%
Cc1ccc(S(=O)(=O)N2CCOCC2)cc1C(=O)NC1=NCCS1	nt	0.9%	nt	5%
CCOc1ccc(C(=O)NC(C(=O)NCc2ccccn2)C(C)C)cc1 (stereo not given)	-6%	-0.4%	2	3%
CCOc1ccc(S(=O)(=O)NCc2ccc(F)cc2)c2cccnc12	-10%	-6.4%	-22	3%
Cc1cccc(C)c1OCc1cc(C(=O)N(Cc2nccn2C)C(C)C)no1	4%	0.4%	nt	10%
COc1ccc(S(=O)(=O)NCC(c2ccco2)N2CCc3ccccc3C2)cc1 (stereo not given)	nt	-3.0%	nt	-3%
O=C(COC(=O)/C=C/c1ccc(S(=O)(=O)N2CCCCCC2)cc1)NCc1ccccc1Cl	-4%	5.1%	16	27%
N#Cc1ccccc1OCC(=O)OCC(=O)N1CCCC1	nt	-2.8%	nt	-8%
COc1ccc(NC(C)=O)cc1S(=O)(=O)N1CCN(C/C=C/c2ccccc2)CC1	-4%	6.5%	-4	12%
CC(C)=C1SC(N2CCN(c3cccc(C)c3)CC2)=NC1=O	-2%	-1.3%	4	4%
OC1(c2cccs2)CN(c2ccc(Cl)cc2)C2=[N+]1CCCS2 (stereo not given)	0%	1.7%	-6	1%
CCN1C(=O)NC2C1N(S(C)(=O)=O)CCN2S(C)(=O)=O (stereo not given)	-1%	-1.1%	14	15%
O=C(Cn1ccc(NC(=O)OCc2ccccc2)nc1=O)NCCN1CCOCC1	nt	-0.2%	nt	-11%
CN(c1ccccc1)S(=O)(=O)c1cc(C(=O)OCC(N)=O)ccc1Cl	-1%	-0.5%	-4	-21%
CO/C(N)=C(\C#N)N=Cc1ccccc1Cl	-44%	-1.9%	4	4%
O=C(Nc1ccccc1)Nc1ccc(Cl)c([N+](=O)[O-])c1	22%	4.0%	-3	-6%
CNC(=O)Cn1nc(C)c(S(=O)(=O)N2CCOCC2)c1C	nt	-3.6%	nt	-1%
O=C(NC1CCN(S(=O)(=O)c2ccc(Cl)cc2)CC1)c1cccnc1	-1%	0.7%	nt	-4%
O=C(O)c1ccc(N/N=C/c2cn(Cc3ccccc3F)c3ccccc23)cc1	-21%	?	-6	-28%
COCCCNC(=O)CCn1c(=O)c2ccccc2n(Cc2cccc([N+](=O)[O-])c2)c1=O	0%	-0.3%	-2	0%
CC(=O)c1ccc(N2CCN(C(=O)c3cccc(Oc4ccccc4)c3)CC2)cc1	-3%	-0.2%	-2	-6%
Cc1cccc(NC(=O)CCN2CC(C)CC(C)C2)c1 (stereo not given)	-2%	-3.9%	nt	-5%
N#Cc1nc(Cc2cccc3ccccc23)oc1NCCCn1ccnc1	4%	3.2%	-7	-3%
C=CCN1C(=O)C(=O)N(CC(=O)NCC(=O)Nc2ccc(F)c(F)c2F)C1=O	nt	0.4%	nt	1%
CCOc1ccc(-c2[nH]nc3c2C(c2cccnc2)C(C#N)=C(N)O3)cc1 (stereo not given)	-1%	-0.3%	3	?
COc1cccc(CN2CCNC(=O)C2CC(=O)NCc2cn3ccccc3n2)c1OC (stereo not given)	0%	0.2%	8	2%
O=C(COC(=O)c1cc(S(=O)(=O)N2CCOCC2)ccc1O)NCC1CCCO1 (stereo not given)	-5%	2.7%	5	1%

Arranged by SMILES length (high to low): part of the list above
SMILES	miR-21 reporter	Rango-impB inh	GLA inh pH 4.5	Rango release inh
COCCCNC(=O)CCn1c(=O)c2ccccc2n(Cc2cccc([N+](=O)[O-])c2)c1=O	0%	-0.3%	-2	0%
CC(=O)c1ccc(N2CCN(C(=O)c3cccc(Oc4ccccc4)c3)CC2)cc1	-3%	-0.2%	-2	-6%
N#Cc1nc(Cc2cccc3ccccc23)oc1NCCCn1ccnc1	4%	3.2%	-7	-3%
Cc1cccc(NC(=O)CCN2CC(C)CC(C)C2)c1 (stereo not given)	-2%	-3.9%	nt	-5%

(next part)
SMILES	miR-21 reporter	Rango-impB inh	GLA inh pH 4.5	Rango release inh
Cc1ccc(NC(=O)COc2ncnc3cc([N+](=O)[O-])ccc23)cc1S(=O)(=O)N1CCOCC1	2%	-1.0%	1	16%
CC(C)Cn1c(N)c(C(=O)COC(=O)c2ccc([N+](=O)[O-])o2)c(=O)n(C)c1=O	11%	-0.8%	4	0%
O=C(NC1CCCC1)c1cc2ccccc2o1	-35%	2.2%	nt	32%
CS(=O)(=O)c1ccc(C(=O)N2CC(=O)Nc3ccccc32)cc1	-5%	0.2%	nt	-26%
O=C(CCN=C1NS(=O)(=O)c2ccccc21)Nc1ccc(Cl)cc1F	nt	-1.0%	nt	3%
CCCCc1c(O)nc(SCC(=O)c2ccccc2)n(-c2ccccc2OC)c1=O	-7%	0.2%	9	10%
Cc1ccc(NC(=O)c2ccc(OCC3CCCO3)cc2)c(C)c1 (stereo not given)	-44%	5.5%	2	3%
COc1ccc(Cl)cc1Nc1nc(N)nc(C(F)(F)F)n1	-10%	15%	-7	7%
COC(=O)[C@@H]1Cc2c([nH]c3ccccc23)C2CCC(=O)N21 (stereo not given in full)	-3%	-0.5%	nt	-6%
O=c1oc(Nc2cccc(F)c2)nc2ccccc12	-28%	-2.4%	0	5%
COc1ccccc1-n1nnnc1SCc1cc2c(cc1Br)OCO2	-3%	-0.2%	-2	-3%
O=C(Cn1ccc2cc(S(=O)(=O)N3CCCC3)ccc21)NCc1ccccc1	4%	-3.1%	nt	3%
Cc1ccc(S(C)=O)cc1-n1c(=O)n(Cc2ccccc2)c(=O)c2[nH]cnc21 (stereo not given)	-1%	-2.9%	nt	-5%
CCOC(=O)c1c(NC(=O)C2=C(C)NC(=S)NC2c2ccc(F)cc2F)sc(C)c1C (stereo not given)	11%	?	-2	4%
O=C(COc1ccccc1C(=O)O)Nc1cccc2ccccc12	nt	-3.0%	nt	-16%
CC(CCc1ccccc1)NC(=O)C1CCC1 (stereo not given)	nt	-2.3%	nt	-18%
Cc1cccnc1NC(=O)c1ccc(OCC2CCCO2)cc1 (stereo not given)	nt	1.2%	nt	8%
Cc1ccc(S(=O)(=O)c2nc(Nc3ccccc3N3CCOCC3)sc2Cl)cc1	1%	0.3%	-2	0%
CC(=O)Nc1ccc(S(=O)(=O)NCCC(=O)OCc2csc(CC(=O)Nc3ccccc3C)n2)cc1	nt	-0.5%	nt	-11%
Cc1onc2c(=O)n(-c3ccccc3)nc(-c3ccccc3)c12	-11%	-0.1%	-1	3%
CCOc1ccc(S(=O)(=O)NCc2ccc3c(c2)OCO3)cc1	-2%	2.8%	nt	2%
CCOC(=O)N1CCC(NC(=O)c2cc(C(=O)NCc3ccc(F)cc3)ccc2CO)CC1	4%	0.6%	9	-2%
CCCN1C(=O)/C(=C/c2nc3ccccc3c(=O)[nH]2)c2ccccc21	-3%	?	-1	?
Cc1cc(OC(C)C)nc(-c2ccccc2O)n1	-1%	-0.5%	4	25%
CCOc1cc(C(=O)Nc2ccc(F)cc2)cc(Br)c1OC	?	3.2%	-15	0%
CCO[C@@H]1OC(C(=O)O)=C[C@H](c2ccc(C(F)(F)F)cc2)[C@H]1CCCO	1%	0.6%	0	-4%
O=C(NCCc1c[nH]c2ccccc12)c1cncc(Br)c1	-2%	1.6%	3	-9%
COc1ccc(NC(=O)CSc2nc(-c3ccco3)nc3cc(=O)[nH]n23)cc1Cl	-3%	-3.2%	nt	6%
O=C(NNC(=O)c1cccnc1)Nc1ccc(Cl)c(Cl)c1	-1%	?	-1	-2%
COc1ccc(Cl)cc1NC(=O)CSc1nc2ccsc2c(=O)n1CC1CCC(C(=O)O)CC1 (stereo not given)	-15%	-0.9%	nt	-4%
CCOC(CC(=O)NNC(=O)c1c(-c2c(Cl)cccc2Cl)noc1C)OCC	-8%	-4.0%	0	-2%
Cc1ccc2c(C)c(C(=O)Nc3c(C)n(C)n(-c4ccccc4)c3=O)oc2c1C	-2%	-2.9%	-2	0%
COc1ccc(N2CCN(c3nccs3)CC2)cc1	-56%	4.0%	nt	-1%
COc1ccc(N(CC(=O)Nc2ccccc2OC)S(=O)(=O)c2ccccc2)cc1Cl	8%	-1.6%	nt	7%
COc1ccccc1CN1CCN(Cc2nc(-c3ccc(C)cc3)oc2C)CC1	5%	3.9%	nt	-21%
Cc1ccc(CNC(=O)CSc2nc3[nH]ncc3c(=O)[nH]2)cc1	4%	0.3%	-8	-9%
COC(=O)c1ccc(S(=O)(=O)N2CCN(C)CC2)n1C	0%	-4.4%	-1	12%
Cc1cc2ccc3ccccc3c2cc1CN(C)C	-58%	-0.6%	-11	19%
Cc1ccc(-c2cc(-c3ccc(Cl)cc3)c(C#N)c(N)n2)o1	-1%	?	21	?
O=C(Nc1ccc(S(=O)(=O)Nc2nccs2)cc1)c1c(F)c(F)c(F)c(F)c1F	3%	-1.8%	nt	7%
COc1ccc(/C=[N+](\[O-])C2N(c3ccccc3)C(=S)SC2(C)C)cc1OC (stereo not given)	-10%	4.5%	-5	18%
CCSc1nnc(NC(=O)CSc2nc(CC)nc3c2c(=O)n(C)c(=O)n3C)s1	-4%	-7.5%	4	-2%
Cc1cc(NC(=O)Nc2ccc(Cl)cc2)no1	-34%	-1.7%	nt	0%
CC1=C(C(=O)OCC(C)C)C(c2cccs2)NC(=S)N1 (stereo not given)	2%	-2.5%	-6	-2%
Cc1ccc(SCc2ccc(C(=O)N3CCCC3)cc2)cc1	-44%	-1.8%	-7	3%
COc1ccc(CCN(C(=O)C(F)(F)F)C(C(=O)NC2CCCC2)c2cccs2)cc1 (stereo not given)	2%	5.6%	-3	0%
CC(NC(=O)c1cc(S(=O)(=O)N2CCOCC2)ccc1N1CCCC1)c1ccc(Cl)c(Cl)c1 (stereo not given)	nt	-0.6%	nt	0%
O=[N+]([O-])c1ccc(C2(O)CN(c3ccccc3)C3=[N+]2CCS3)cc1 (stereo not given)	-5%	-1.7%	-4	-2%
Cc1ccc(-c2nn3c(C)nnc3c3ccccc23)cc1S(=O)(=O)N1CCN(CCO)CC1	-20%	0.6%	10	-1%
O=C(CN1CCCc2ccccc21)NC(=O)NCc1ccco1	-11%	2.0%	4	6%
Cc1cccc(OCC(=O)NNC(=O)c2cc(S(=O)(=O)N(C)C)ccc2N2CCCC2)c1	nt	2.4%	nt	18%

Screening results deposited in PubChem by National Center for Advancing Translational Sciences (NCATS).
